High-throughput results from PubChem.
rRNA inh HTS – reduced GFP signal of wild-type E. coli, primary screen, bacterial rRNA inhibitor project, GFP/RFP fluorescence, OD600, single point; GFP signal change (wild-type ribosome), % (no concentration beside the values); 350,000 compounds, 1.6% hits; E. coli WT GFP vs humanized-ribosome RFP mutants, 24 h; stronger effect = lower value; DMSO median 0, no signal -100;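 active = significant combined selectivity score with lowered wild-type GFP, culture density cut under 30%, mutant RFP and density less affected; inactive = any of these conditions unmet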; also: one replicate is shown; some compounds called inactive have numbers as strong as hits
HNF4A DNA FP – change in binding of human HNF4A to DNA, primary screen, biochemical, fluorescence polarization, FITC-DNA. Hepatocyte nuclear factor 4-alpha (Homo sapiens), P41235. 1 h. activity change, % at 10 µM. 360,000 compounds, 0.3% hits. AID 1224865, 2016; in the data active = activity change above about 30%, passing the limit was not always enough;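 also: controls were the assay level and a saturating level of protein; the project sought stronger binding though the title names inhibitors; some compounds called inactive have numbers as strong as hits; positive values seem to mean higher polarization but the record does not say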
Target sequence (P41235 whole entry, looked up): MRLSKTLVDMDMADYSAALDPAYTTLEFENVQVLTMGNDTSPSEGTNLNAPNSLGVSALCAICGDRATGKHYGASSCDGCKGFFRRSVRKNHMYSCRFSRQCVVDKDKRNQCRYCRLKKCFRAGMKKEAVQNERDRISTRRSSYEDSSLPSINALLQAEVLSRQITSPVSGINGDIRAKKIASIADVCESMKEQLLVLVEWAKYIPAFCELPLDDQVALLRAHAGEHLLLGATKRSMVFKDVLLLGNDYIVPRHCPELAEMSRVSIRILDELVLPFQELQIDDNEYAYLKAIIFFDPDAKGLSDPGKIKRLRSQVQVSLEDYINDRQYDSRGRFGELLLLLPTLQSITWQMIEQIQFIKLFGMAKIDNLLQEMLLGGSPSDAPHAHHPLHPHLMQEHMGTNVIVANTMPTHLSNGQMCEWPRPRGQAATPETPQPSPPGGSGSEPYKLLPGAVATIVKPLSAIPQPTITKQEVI
E coli growth – E. coli growth inhibition, primary screen, OD600; Escherichia coli growth, 23 h; stronger effect = lower value; OD600 absorbance (test concentration not listed); 330,000 compounds, 0.21% hits; AID 1053175, 2014;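 active = OD600 absorbance below the run mean of sample wells minus 3.6 SD, in any replicate, cut at about 0.56 in these data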;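 also: stock transfer was 300 nL into about 60 µL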
AF4-AF9 inh – inhibitors of AF4 peptide binding to AF9, primary screen, biochemical, AlphaScreen, biotin-AF4 peptide, FLAG-AF9, single point; Protein AF-9 (Homo sapiens), P42568; inhibition, % at 10 µM; 350,000 compounds, 0.47% hits; AID 651704, 2012;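 active = every replicate reaching a set inhibition limit, whatever the replicate mean, cut at about 25% in these data; inconclusive = mean inhibition reaches that limit but some replicates miss it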;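 also: 0% = plate neutral control median and 100% = total signal loss; the record names both 10 and 1 µM as test concentration; the first replicate is given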
FGF22 binding – binders of human FGF22 protein, primary screen, FGF22 synaptogenesis inhibitor project, biophysical, thermal shift, single point; Fibroblast growth factor 22 (Homo sapiens), Q9HCT0; recombinant FGF22 thermal shift, SYPRO orange fluorescence; percent of sucrose octasulfate shift, DMSO zero; calls only at 9.99 µM; 340,000 compounds, 1.5% hits; AID 651658, 2012;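 active = melting point raised past a set limit in the mean and every replicate; inconclusive = no clear call; three in four hits are not shown here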
Target sequence (Q9HCT0 whole entry, looked up): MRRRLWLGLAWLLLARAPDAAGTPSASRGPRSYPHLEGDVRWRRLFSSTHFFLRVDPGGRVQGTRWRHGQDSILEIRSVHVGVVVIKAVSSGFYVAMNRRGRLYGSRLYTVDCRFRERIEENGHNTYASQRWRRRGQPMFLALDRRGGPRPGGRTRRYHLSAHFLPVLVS
Vif TR-FRET – inhibitors of Vif binding to APOBEC3G peptide, primary screen, biochemical, TR-FRET, GST-Vif 1-94, biotin-A3G peptide, dose response retest (AID 1117319). Virion infectivity factor (Human immunodeficiency virus type 1 group M subtype B (isolate …. inhibition, %; hits with a dose series show IC50 in µM. 260,000 compounds, 0.57% hits. TR-FRET GST-Vif / biotin-A3G peptide binding; higher % means a stronger effect; test concentration not given here; strong numbers were not always called active;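 active = above the screen mean plus three standard deviations and confirmed in dose response; inconclusive = results disagree or hit not tested in dose response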;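 also: Vif residues 1-94 fused to GST binding biotinylated APOBEC3G peptide 110-148; 0% = full assay without inhibitor and 100% = GST in place of GST-Vif; retest series ran down from 100 µM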
ALR inh – inhibitors of human ALR sulfhydryl oxidase, primary screen, biochemical, H2O2 detection, HRP-luminol luminescence, single point; FAD-linked sulfhydryl oxidase ALR (Homo sapiens), P55789; purified ALR, DTT oxidation; inhibition, % (test concentration not listed); 290,000 compounds, 3.8% hits; AID 485317, 2010;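 active = mean and each replicate at 75% or more; inconclusive = only one of the two met; inactive = neither met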;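 also: stock transfer was 7.5 nL into about 7.5 µL; 0% = neutral wells and 100% = wells with inactivated enzyme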
Target sequence (P55789 whole entry, looked up): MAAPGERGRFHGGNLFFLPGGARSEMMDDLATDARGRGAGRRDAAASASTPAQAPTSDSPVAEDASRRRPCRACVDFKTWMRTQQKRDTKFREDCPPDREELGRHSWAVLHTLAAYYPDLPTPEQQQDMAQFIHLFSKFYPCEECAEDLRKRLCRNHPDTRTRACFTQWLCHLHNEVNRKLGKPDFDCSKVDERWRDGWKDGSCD
rRNA inh HTS OD600 – further read-out of rRNA inh HTS, marked with its call; OD600 change, %; measured here: OD600 growth;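 optical density of the mix in the first replicate; 0 = DMSO median and -100 = no signal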
rRNA inh HTS RFP – second read-out of rRNA inh HTS, no call of its own (marks repeat the call); RFP signal change, %; measured here: RFP humanized mutant strains;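 first replicate; 0 = DMSO median and -100 = no signal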
Active calls of the source: *; i = inactive; ? = inconclusive; . = no result given; & = joins results of further samples; ! = not confirmed by another sample.

entry	Structure	rRNA inh HTS OD600	FGF22 binding	Vif TR-FRET	ALR inh	E coli growth
1	Oc1ccc2c(c1)OCC1(O)Cc3cc(O)c(O)cc3C21 (stereo unspecified)	.	i	.	.	.
2	C1COC(NC(C2CC2)C2CC2)=N1	.	i	25.9%	.	0.713
3	Cc1ccc(N(CC2=NCCN2)c2cccc(O)c2)cc1	10.6	i	2.5%	98.3*	0.647&0.683&0.705
4	CC(C)=CCOc1c2ccoc2cc2oc(=O)ccc12	2.8	i	-11.3%	-8.5	0.715
5	N[C@@H](Cc1c[nH]c2ccc(O)cc12)C(=O)O	3.9	i	.	34.8	.
6	CCOC(=O)[C@H](CCc1ccccc1)N[C@@H](C)C(=O)N1Cc2ccccc2C[C@H]1C(=O)O	-7.5	i	.	-3.5	.
7	CN1CCCN=C1COC(=O)C(O)(c1ccccc1)C1CCCCC1 (stereo unspecified)	-14.9	i	5.8%	5.4	.
8	NC1CCN(c2nc3c(cc2F)c(=O)c(C(=O)O)cn3-c2ccc(F)cc2F)C1 (stereo unspecified)	.	i	.	-9.7	0.0705*

entry	AF4-AF9 inh	HNF4A DNA FP	rRNA inh HTS RFP	rRNA inh HTS
1	25.9*	-8.0	.	.
2	-4.6	4.0	.	.
3	13.2&6.2&3.3&8.3	-5.3&-2.6&2.4	0.3	1.6
4	-2.8	1.3	-1.2	6.0
5	3.8	-5.6	-1.4	0.0
6	-1.8	-0.2	-0.7	-8.0
7	1.1	1.0	2.5	-8.2
8	-2.2	3.7	.	.

Continuation.
entry	Structure	rRNA inh HTS OD600	FGF22 binding	Vif TR-FRET	ALR inh	E coli growth
9	C/C=C/C(=O)N(CC)c1ccccc1C	.	i	-2.1%	.	.
10	CN(C)CCCC1(c2ccc(F)cc2)OCc2cc(C#N)ccc21 (stereo unspecified)	10.3	i	26.9%&-13.1%	0.1	0.652
11	Cc1cccc2c1NC(=O)C2(c1ccc(O)cc1)c1ccc(O)cc1	.	.	2.5%	9.0	.
12	CCCCNc1ccc(C(=O)OCCN(C)C)cc1	2.9	i	-5.3%	.	0.648
13	O=c1oc2c(O)c(O)cc3c(=O)oc4c(O)c(O)cc1c4c23	.	.	0.45µM*	30.1	.
14	CCC(=O)N1CCN(c2ccc(-n3c(=O)ccc4cnc5ccc(-c6cnc7ccccc7c6)cc5c43)cc2C(F)(F)F)CC1	-28.0	i	.	.	.
15	CCCCNc1ccc(C(=O)OCCOCCOCCOCCOCCOCCOCCOCCOCCOC)cc1	.	i	.	1.2	0.68
16	CC(=O)Nc1ccc(CC(=O)O)cc1	-22.9	i	-2.4%	-5.0	.

entry	AF4-AF9 inh	HNF4A DNA FP	rRNA inh HTS RFP	rRNA inh HTS
9	-5.6	-1.9	.	.
10	-2.7	1.7	1.8	9.7
11	.	0.5	.	.
12	-3.4	-4.4	-1.7	0.0
13	.	-90.6	.	.
14	2.3	.	-1.0	-4.3
15	-5.4	-1.9	.	.
16	5.5	2.1	5.0	-25.3

(more compounds)
entry	Structure	rRNA inh HTS OD600	FGF22 binding	Vif TR-FRET	ALR inh	E coli growth
17	CCC(NC(C)C)C(O)c1ccc(O)c2[nH]c(=O)ccc12 (stereo unspecified)	.	.	-2.5%	-4.2	.
18	C/C=C(/C)C(=O)OC(C)(C)[C@@H]1Cc2c(ccc3ccc(=O)oc23)O1	-11.9	i	-7.5%	-1.8	.
19	COc1cc(-c2oc3cc(O)cc(O)c3c(=O)c2O[C@@H]2O[C@H](COC3O[C@@H](C)[C@H](O)[C@@H](O)[C@H]3O)[C@@H](O)[C@H](O)[C@H]2O)ccc1O (stereo partly specified)	-1.4	i	.	93.6*	.
20	O=C(O)CCC(=O)c1ccc(-c2ccccc2)cc1	-10.3	i	?	6.3	0.707
21	C[N+]1(C)CCC(=C(c2ccccc2)c2ccccc2)CC1	14.3	i	.	.	0.693
22	CC1(C)O[C@H]2CC(=O)OC[C@@]23C1CC(=O)[C@]1(C)C3CC[C@@]2(C)[C@H](c3ccoc3)OC(=O)[C@H]3O[C@]321 (stereo partly specified)	2.9	i	.	.	0.769
23	Oc1ccc(C2CNCCc3c2cc(O)c(O)c3Cl)cc1 (stereo unspecified)	.	i	.	99.1*!	0.641&0.682
24	CCN(CC)CCOC(=O)c1ccc(N)cc1	.	i	.	-4.9	0.715

entry	AF4-AF9 inh	HNF4A DNA FP	rRNA inh HTS RFP	rRNA inh HTS
17	.	-2.6	.	.
18	2.1	-0.2	-4.4	-7.3
19	-5.1	3.1	-0.9	-4.9
20	0.4	-0.9	-2.9	-5.3
21	-3.8	1.6	0.1	14.5
22	-1.4	-0.8	-1.5	4.8
23	6.5&7.7	-3.4&-1.5	.	.
24	-3.0	1.2	.	.

9 of these compounds, reformatted.
cpd | canonical_smiles | rRNA inh HTS OD600 | FGF22 binding | Vif TR-FRET | ALR inh | E coli growth | AF4-AF9 inh | HNF4A DNA FP | rRNA inh HTS RFP | rRNA inh HTS
6 | CCOC(=O)[C@H](CCc1ccccc1)N[C@@H](C)C(=O)N1Cc2ccccc2C[C@H]1C(=O)O | -7.5 | i | . | -3.5 | . | -1.8 | -0.2 | -0.7 | -8.0
7 | CN1CCCN=C1COC(=O)C(O)(c1ccccc1)C1CCCCC1 (stereo unspecified) | -14.9 | i | 5.8% | 5.4 | . | 1.1 | 1.0 | 2.5 | -8.2
8 | NC1CCN(c2nc3c(cc2F)c(=O)c(C(=O)O)cn3-c2ccc(F)cc2F)C1 (stereo unspecified) | . | i | . | -9.7 | 0.0705* | -2.2 | 3.7 | . | .
9 | C/C=C/C(=O)N(CC)c1ccccc1C | . | i | -2.1% | . | . | -5.6 | -1.9 | . | .
10 | CN(C)CCCC1(c2ccc(F)cc2)OCc2cc(C#N)ccc21 (stereo unspecified) | 10.3 | i | 26.9%&-13.1% | 0.1 | 0.652 | -2.7 | 1.7 | 1.8 | 9.7
11 | Cc1cccc2c1NC(=O)C2(c1ccc(O)cc1)c1ccc(O)cc1 | . | . | 2.5% | 9.0 | . | . | 0.5 | . | .
12 | CCCCNc1ccc(C(=O)OCCN(C)C)cc1 | 2.9 | i | -5.3% | . | 0.648 | -3.4 | -4.4 | -1.7 | 0.0
13 | O=c1oc2c(O)c(O)cc3c(=O)oc4c(O)c(O)cc1c4c23 | . | . | 0.45µM* | 30.1 | . | . | -90.6 | . | .
14 | CCC(=O)N1CCN(c2ccc(-n3c(=O)ccc4cnc5ccc(-c6cnc7ccccc7c6)cc5c43)cc2C(F)(F)F)CC1 | -28.0 | i | . | . | . | 2.3 | . | -1.0 | -4.3

Next records.
entry	Structure	rRNA inh HTS OD600	FGF22 binding	Vif TR-FRET	ALR inh	E coli growth
25	Cc1ccc(=O)n(-c2ccccc2)c1	7.7	i	.	-1.1	0.631
26	CCc1ccc(CCOc2ccc(CC3SC(=O)NC3=O)cc2)nc1 (stereo unspecified)	-3.9	i	.	4.6	0.697
27	COc1ccc(-c2cc(=O)c3c(O)cc(O[C@@H]4O[C@H](CO[C@@H]5O[C@@H](C)[C@H](O)[C@@H](O)[C@H]5O)[C@@H](O)[C@H](O)[C@H]4O)cc3o2)cc1O	.	i	.	2.5	.
28	COC(=O)C1=CO[C@@H](O[C@@H]2O[C@H](CO)[C@@H](O)[C@H](O)[C@H]2O)C2C1C[C@H](O)[C@@H]2C (stereo partly specified)	9.4	i	.	-2.6	0.763
29	CCCc1nc(C(C)(C)O)c(C(=O)O)n1Cc1ccc(-c2ccccc2-c2nn[nH]n2)cc1	.	.	-10.7%	1.6	0.69
30	COc1ccc(-c2cc(=O)c3c(O)cc(OC4OC(COC5OC(C)C(O)C(O)C5O)C(O)C(O)C4O)cc3o2)cc1O (stereo unspecified)	.	i	.	10.8	0.75
31	COc1ccc(C[C@H]2COC(=O)[C@@H]2Cc2ccc(OC3OC(CO)C(O)C(O)C3O)c(OC)c2)cc1OC (stereo partly specified)	.	.	-0.6%	2.1	.
32	NOCC(=O)O	.	i	.	-11.3	0.718

entry	AF4-AF9 inh	HNF4A DNA FP	rRNA inh HTS RFP	rRNA inh HTS
25	4.5	-2.4	1.4	3.8
26	-24.1	-1.1	-0.1	-4.7
27	6.8	-4.0	.	.
28	-2.5	-1.9	-3.2	4.4
29	.	.	.	.
30	-1.9	0.3	.	.
31	.	6.4	.	.
32	-0.9	-1.6	.	.

Next section
entry	Structure	rRNA inh HTS OD600	FGF22 binding	Vif TR-FRET	ALR inh	E coli growth
33	Cc1cncn1CCc1nc2c3ccccc3nc(SCC(=O)Nc3cccc(Cl)c3)n2n1	.	.	.	21.4	0.674
34	Oc1cc2c(cc1O)[C@H]1c3ccc(O)c(O)c3OC[C@@]1(O)C2	-0.4	i	0.57µM*	.	.
35	Cc1c(C(=O)O)c(O)cc2c1C(=O)c1c(O)c([C@@H]3O[C@H](CO)[C@@H](O)[C@H](O)[C@H]3O)c(O)c(O)c1C2=O	1.0	i	.	13.5	.
36	CN(C)CCC[C@]1(c2ccc(F)cc2)OCc2cc(C#N)ccc21	.	i	.	4.0	0.644
37	CC1Cc2ccccc2N1NC(=O)c1ccc(Cl)c(S(N)(=O)=O)c1 (stereo unspecified)	2.2	i	?	.	0.695
38	CC1(C)C2CC[C@]3(C)[C@H](C(=O)C=C4[C@@H]5C[C@@](C)(C(=O)O)CC[C@]5(C)CC[C@]43C)[C@@]2(C)CC[C@@H]1O[C@H]1O[C@H](C(=O)O)[C@@H](O)[C@H](O)[C@H]1O[C@@H]1O[C@H](C(=O)O)[C@@H](O)[C@H](O)[C@H]1O (stereo partly specified)	5.9	i	.	.	.
39	COc1ccccc1N1CCN(CCCN=C2CC(=O)N(C)C(=O)N2C)CC1	.	i	.	.	0.694
40	N#Cc1ccc(C(c2ccc(C#N)cc2)n2cncn2)cc1	3.7	i	-13.9%	.	0.676

entry	AF4-AF9 inh	HNF4A DNA FP	rRNA inh HTS RFP	rRNA inh HTS
33	.	-1.3	.	.
34	?	-5.2	27.8	-17.2
35	.	-5.4	30.8	-8.4
36	1.0	-0.8	.	.
37	2.4	0.8	-0.9	1.5
38	-3.7	-0.4	-0.8	2.5
39	16.9	2.6	.	.
40	-5.2	3.9	1.6	7.6

Next section.
entry	Structure	rRNA inh HTS OD600	FGF22 binding	Vif TR-FRET	ALR inh	E coli growth
41	O=C(O)c1cccnc1Nc1cccc(C(F)(F)F)c1	.	.	1.4%	.	0.691
42	CC(=O)CCCCn1c(=O)c2c(ncn2C)n(C)c1=O	.	i	15.1%&-14.0%	.	0.707
43	C=CC[n+]1ccc(/C=C2\C=Cc3cc(C)ccc3N2CC)c2ccccc21	.	.	27.8%	.	0.435*
44	CCCCCC(=O)O[C@]1(C(C)=O)CC[C@H]2[C@@H]3CCC4=CC(=O)CC[C@]4(C)[C@H]3CC[C@@]21C	.	i	17.3%	.	.
45	COc1ccc(C2CNC(=O)C2)cc1OC1CCCC1 (stereo unspecified)	-3.9	i	3.5%&1.9%&-1.8%	-6.2	0.69

entry	AF4-AF9 inh	HNF4A DNA FP	rRNA inh HTS RFP	rRNA inh HTS
41	0.0	-2.5	.	.
42	1.4	-2.9	.	.
43	.	3.4	.	.
44	-1.0&0.4	-2.5	.	.
45	-1.0	-0.9	-0.1	1.2

An excerpt, so the mix of outcomes need not match the whole.
